Assay outcomes (PubChem)
Rango complex inh: prevents formation of the Rango-importin beta complex; Q14974; Rango CFP/YFP FRET sensor + importin beta, 45 min; Potency, µM (doses to about 92.2 µM), inactives show at the top dose inhibition of complex formation; 340,000 compounds, 0.031% hits; active = rising FRET ratio curve, often small or poorly fitted; inconclusive = mostly compound fluorescence or quenching in the first reads; inactive = flat curves in all reads;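 further: potency means the concentration at half of the fitted maximal effect; 0% = DMSO wells and 100% = buffer wells lacking importin beta; nearly all actives have a fitted effect of over 15% in size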
Target sequence (Q14974 whole entry, looked up): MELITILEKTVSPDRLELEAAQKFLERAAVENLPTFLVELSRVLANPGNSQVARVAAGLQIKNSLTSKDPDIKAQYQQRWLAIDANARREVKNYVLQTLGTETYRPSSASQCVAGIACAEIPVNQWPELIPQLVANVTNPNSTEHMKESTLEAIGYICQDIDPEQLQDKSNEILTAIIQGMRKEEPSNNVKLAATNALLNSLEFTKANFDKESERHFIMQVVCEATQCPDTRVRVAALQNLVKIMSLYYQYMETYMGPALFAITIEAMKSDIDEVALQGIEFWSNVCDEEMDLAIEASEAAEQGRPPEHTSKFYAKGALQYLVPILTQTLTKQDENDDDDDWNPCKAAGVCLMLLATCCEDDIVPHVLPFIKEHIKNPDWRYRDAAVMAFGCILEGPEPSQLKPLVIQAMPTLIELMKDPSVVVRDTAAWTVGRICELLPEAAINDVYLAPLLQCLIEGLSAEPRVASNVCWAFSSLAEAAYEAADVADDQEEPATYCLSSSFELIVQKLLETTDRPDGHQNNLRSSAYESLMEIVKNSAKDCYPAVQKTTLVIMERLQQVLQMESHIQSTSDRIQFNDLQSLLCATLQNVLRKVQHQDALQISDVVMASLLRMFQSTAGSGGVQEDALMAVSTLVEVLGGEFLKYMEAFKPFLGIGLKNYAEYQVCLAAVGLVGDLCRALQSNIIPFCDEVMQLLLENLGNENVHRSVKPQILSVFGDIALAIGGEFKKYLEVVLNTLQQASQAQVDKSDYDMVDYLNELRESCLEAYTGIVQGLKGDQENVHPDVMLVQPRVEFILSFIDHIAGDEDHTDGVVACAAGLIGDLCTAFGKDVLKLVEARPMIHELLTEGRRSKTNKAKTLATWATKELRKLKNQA
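FRET biosensor (snurportin 1 IBB flanked by EYFP and cerulean), 50 nM, with compound 5 min, then 0.125 microM importin beta in PBS, 1 mM DTT, 0.02% Tween-20, 0.1% BSA. CFP/YFP ratio read after 45 min at room temperature; pre-read flags interference.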
GLA inh pH 4.5: blocks human alpha-galactosidase A at pH 4.5. 230,000 tested, under 10 active. P06280. AID 1467. activity change, negative = inhibition, % at 105 µM. purified enzyme, 4-MU-alpha-Gal fluorescence, pH 4.5; inconclusive = small, poorly fitted or top-dose-only inhibition, or a rising curve; inactive = flat fitted curve, though single readings scatter; no compound was filed as active;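 further: 0% = full activity with enzyme and -100% = basal without enzyme; dose as in the result columns while the protocol names 77 µM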
Rango dissoc inh: inhibitors of RanGTP-induced Rango-importin beta complex dissociation; Potency, µM (top dose mostly 46.1 µM), without a hit: at the highest dose activity change, negative = inhibition; AID 540253; 340,000 compounds, 0.071% hits; Biochemical FRET Rango-importin beta, RanGTP-induced dissociation; active means falling FRET ratio curve, often poorly fitted, with flat reads before Ran was added; inconclusive means other falling curves, or compound fluorescence or quenching; inactive means flat or rising ratio curve;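 further: potency means the concentration at half of the fitted maximal effect; % of control where 0% means no effect; nearly all actives have a fitted effect of over 45% in size; -100% = wells without RanGTP and RCC1; the record marks most hits as doubtful in a second field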
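Rango/importin beta premix (0.1/0.25 uM final), PBS + 1 mM DTT + 0.02% Tween-20 + 0.1% BSA; cpd 5 min RT; FRET pre-read; + RanGTP-RCC1 (0.6 uM Ran, 2 mM GTP, 0.2 uM RCC1); 45 min RT; FRET post-read, ex 430, em 486/530 nm.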
miR-21 FLuc: miR-21 reporter, rising signal; HeLa miR-21 FLuc reporter, luciferase, 48 h; Potency, µM (highest dose often 38.3 µM), inactives show at the highest dose reporter change, positive = more light; 340,000 tested, under 10 active; AID 2288; active = well fitted rising curve with a large enough effect; inconclusive = small, poorly fitted or top-dose-only effect; inactive = no such curve, though single readings can be large or run the other way;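 further: % of control where 0% means no effect; miR-21 action dims this reporter so a rising signal means less miR-21 action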
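HeLa cells endogenously expressing miR-21, stably carrying CMV-driven firefly luciferase with a downstream miR-21 binding site, 2000 cells/well. Titrations up to approximately 40 uM, 48 hours; luciferase luminescence read.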
* hit, by the source's call; ? = inconclusive; . = no result given; & = joins results of further samples. These rows are one share of the data; count on the stated rates, not on these rows.

Results follow in this order: Rango complex inh, GLA inh pH 4.5, Rango dissoc inh, miR-21 FLuc
O=[N+]([O-])c1ccc(Nc2nc(N/N=C\c3ccc4c(c3)OCO4)nc(N3CCCCC3)n2)cc1
  -0.9%, 0, 3%, 7%
COCCNC(=O)[C@@H]1CCCN1S(=O)(=O)c1cccc2cccnc12
  -4.1%, ., -19%, .
CCN(CC)S(=O)(=O)c1ccc2[nH]c(=O)[nH]c2c1
  0.5%, 13, 9%, -9%
Cc1noc(C)c1S(=O)(=O)N1CCCC(C(=O)Nc2ccc(Cl)cn2)C1 (stereo not given)
  0.8%, 5, 0%, 10%
CCOC(=O)CNC(=O)C(CC(N)=O)NC(=O)OC(C)(C)C (stereo not given)
  0.5%, -1, -23%, -1%
O=C(Nc1ccccc1N1CCN(C(=O)c2ccc(Cl)cc2)CC1)c1cccc([N+](=O)[O-])c1
  1.5%, ., 1%, -8%
FC(F)(F)Oc1ccc(NC(=S)NCc2ccccc2)cc1
  0.5%, 0, -3%, 5%
CS(=O)(=O)Nc1ccc(C(=O)NCCSCc2ccco2)cc1
  -0.1%, -18, 11%, -13%
Cc1c(C)c2ccc(OC3CCCCC3=O)cc2oc1=O (stereo not given)
  0.0%, -1, 14%, -39%
COc1ccc(CNC(=O)CCC(=O)n2ncc3cc(C)ccc32)cc1
  0.6%, ., -7%, -3%
Cc1cccc(N2C(=O)CC(N(C(=O)c3ccco3)c3cccc(C)c3)C2=O)c1 (stereo not given)
  -4.7%, -7, 1%, -8%
C=CCOc1cccc(/C=N/NC(=O)C(OC)c2ccccc2)c1 (stereo not given)
  2.4%, ., 2%, -6%
O=C1NCCCC2c3c(cc(Br)c(O)c3Br)OC12N1CCCCC1 (stereo not given)
  -2.2%, -1, -10%, -10%
COc1ccccc1N(Cc1ccccc1)S(=O)(=O)c1cccc(C(=O)Nc2cc(C)ccn2)c1
  2.3%, ., 16%, 26%
Cc1ccc(N2C(=O)C(Cl)=C(N3CCCCCC3)C2=O)cc1
  1.4%, ., -11%, -14%
Cc1cc2cc(CNC(=O)Nc3cccc(Cl)c3)ccc2n1C
  -2.7%, -17, -22%, -10%
C[C@H](NC(=O)[C@H](Cc1ccccc1)n1c(=O)[nH]c2ccccc2c1=O)C(=O)N1CCC[C@H]1C(=O)O
  -2.4%, ., 1%, 0%
CC1(C)CC(NC(=O)C(F)(F)F)CC(C)(C)N1OC(=O)c1ccco1
  7.4%, -1, 0%, 2%
C=CCNC(=S)N(Cc1ccccc1)Cc1ccc(F)cc1
  -0.2%, 2, -3%, 2%
CC(Sc1nnc(-c2cccs2)n1-c1ccccc1)C(=O)NCc1ccc2c(c1)OCO2 (stereo not given)
  ?, -11, 9%, 8%
Cc1ccc(NC(=O)CSCC(=O)N2CCCc3ccccc32)cc1
  -0.4%, ., 19%, .
CO[C@H]1C[C@@H]2CC[C@@H](C)[C@@](O)(O2)C(=O)C(=O)N2CCCC[C@H]2C(=O)O[C@H]([C@H](C)C[C@@H]2CC[C@@H](O)[C@H](OC)C2)CC(=O)[C@H](C)C=C(C)[C@@H](O)[C@@H](OC)C(=O)[C@H](C)C[C@H](C)C=CC=CC=C1C
  ., -10, ., 9%
Oc1c(Br)cc(Br)cc1/C=N/c1nc2c(s1)CCCC2
  ?, ., ?, .
Cc1ccc(CS(=O)Cc2ccc(C(=O)NCc3ccccc3)o2)cc1 (stereo not given)
  6.6%, ., -5%, 4%
CCn1c(CSc2ncn[nH]2)nc2cc(C(=O)O)ccc21
  3.1%, 1, -3%, 3%
Cc1ccccc1-n1c(=O)n(Cc2ccccc2)c(=O)c2[nH]cnc21
  0.3%, -1, 9%, -33%
CC(C)c1cc(C(=O)N2CCCC(CCC(=O)NCc3ccccc3F)C2)n(C)n1 (stereo not given)
  -2.1%, -9, 9%, 9%
O=C(Nc1cccc(O)c1)c1cc(-c2ccco2)on1
  2.4%, 1, -10%, -30%
O=C(CSc1nnc(Cc2ccsc2)o1)c1ccccc1
  0.6%, -10, 0%, -12%
O=S(=O)(N1CCCCC1)n1c(Cc2ccccc2)nc2ccccc21
  2.5%, 0, 10%, -5%

The listing continues:
Results follow in this order: Rango complex inh, GLA inh pH 4.5, Rango dissoc inh, miR-21 FLuc
COc1ccc(NC(C)=O)cc1NC(C)C(=O)Nc1cccc2ccccc12 (stereo not given)
  1.1%, -7, 3%, -2%
O=C(NNC(=O)c1ccc(=O)[nH]c1)c1ccc(NS(=O)(=O)c2cccs2)cc1
  4.5%, ., -7%, .
Cc1ccc(OCCn2c(=O)cnc3ccccc32)cc1
  -0.1%, 2, 8%, 0%
CCOc1ccccc1N1CC(C(=O)Nc2ccc(C(=O)O)cc2)CC1=O (stereo not given)
  2.8%, 10, 7%, -2%
CCCCC(=O)Nc1nnc(CCc2ccccc2)s1
  -2.4%, ., -6%, -10%
Cc1ccc2c(c1)N(CCCC(=O)NCC1COc3ccccc3O1)C(=O)CO2 (stereo not given)
  1.3%, 4, -19%, 1%
CC(C)c1ccc(/C=C2\CC/C(=C\C=N\N(C)C)C2=O)cc1
  ?, -6, -6%, -27%
CCOC(=O)C1CCCN(Cc2cc(Br)ccc2OC)C1 (stereo not given)
  -4.2%, -11, 5%, -8%
O=C(NCCc1ccc(Cl)cc1)c1ccc2c(c1)OCO2
  3.2%, ., -4%, -50%
Cc1cccc(-c2nnc(SCC(=O)NC3CCCC3)o2)c1
  -0.1%, ., -10%, -21%
COc1ccc(-c2cnc(N)nc2-c2ccc(OCc3ccccc3)cc2O)cc1
  -1.5%, -17, 0%, 4%
CC(C)(C)n1nnnc1C(c1cccs1)N(Cc1cccnc1)CC1CCCO1 (stereo not given)
  2.6%, -16, 3%, 0%
COc1cc(C(=O)OCC(=O)Nc2ccc(S(=O)(=O)N3CCCC3)cc2)cc(OC)c1OC
  -4.1%, ., 4%, .
O=C(CN1CCN(c2ccc(O)cc2)CC1)Nc1ccc2c(c1)OCCCO2
  5.6%, ., 22%, .
COC(=O)c1cc(NC(=O)c2cc(-c3ccc(Cl)cc3)oc2C(F)(F)F)ccc1N1CCOCC1
  -1.6%, 0, 4%, 0%
O=C(Nc1ccccc1F)C1CCN(S(=O)(=O)c2cccnc2)CC1
  1.7%, ., 52%, -1%
CCOC(=O)C1CCCN(C/C(O)=C(\C#N)c2nc(-c3ccc(Cl)cc3)cs2)C1 (stereo not given)
  -0.2%, 2, -1%, -6%
Cc1ccc2oc(-c3cccc(NC(=O)c4ccc(Br)o4)c3C)nc2c1
  2.6%, 2, -6%, -40%
CCOC(=O)c1c(NC(=O)NC(C)(C)C)sc2c1CCN(C)C2
  ?, 7, 7%, 1%
COc1ccc(NC(=O)CN(C)C(=O)c2ccc(NS(=O)(=O)c3ccc4[nH]c(=O)[nH]c4c3)cc2)cc1
  -1.8%, ., 9%, .
CC(C)(C)Nc1nc(Cl)nc(Nc2ccccc2)n1
  -2.9%, ., 3%, -40%
Cn1c(-c2ccccc2)cnc1NCc1cc(Cl)ccc1O
  3.8%, ., 1%, -43%
Cc1[nH]n(-c2ccccc2)c(=O)c1C=Nc1ccc2[nH]c(=O)[nH]c2c1
  3.4%, 4, 13%, -6%
CC(C)S(=O)(=O)c1csc(C(=O)NNC(=O)Nc2ccccc2)c1Cl
  0.4%, ., -25%, -2%
COc1cccc(C(=O)Nc2nc(-c3ccccc3)c(-c3ccccc3)o2)c1
  0.8%, -5, -10%, 15%
Cc1ccc(C)c(NC(=O)CCC(=O)OC(C(=O)c2ccccc2)c2ccccc2)c1 (stereo not given)
  0.6%, 0, -16%, 0%
COc1cccc(NC(=O)CN(C)C(=O)CCCc2c[nH]c3ccccc23)c1
  ?, ., -7%, .
CCOC(=O)C1CCN(C(=O)c2ccc3c(=O)n4nc(Nc5cc(C)ccc5C)sc4nc3c2)CC1
  0.0%, ., -6%, 21%&20%
Cn1c(=O)cc(SCC(=O)N2CCN(Cc3ccc4c(c3)OCO4)CC2)c2ccccc21
  4.9%, -1, 8%, -7%
CC(=O)c1cccc(NC(=O)Oc2ccccc2)c1
  3.3%, -3, 4%, 0%

Next section.
Results follow in this order: Rango complex inh, GLA inh pH 4.5, Rango dissoc inh, miR-21 FLuc
CC(=O)c1cccc(NC(=O)C2CCCN(S(=O)(=O)c3ccc(F)cc3)C2)c1 (stereo not given)
  1.0%, -2, 4%, 12%
NC(=O)c1ccccc1NCC(=O)c1ccc(Cl)cc1
  2.0%, ., -11%, -19%
CCOC(=O)CSc1cc(C)nc(N)n1
  -3.1%, -5, 25%, -6%
COc1cc([N+](=O)[O-])ccc1NC(=O)CCN1C(=O)C2C3CCC(C3)C2C1=O (stereo not given)
  ?, -14, 5%, -5%
COc1ccc(N2CCN(CCNC(=O)CCCn3c(=O)[nH]c4cc(Cl)ccc4c3=O)CC2)cc1
  0.3%, 0, 1%, 2%
O=c1oc(-c2ccccc2NS(=O)(=O)c2ccc(F)cc2)nc2ccccc12
  -3.8%, 7, 16%, -2%
COc1cccc(NC(=O)CN(C)C(=O)c2ccc3c(c2)C(=O)N(CCC(C)C)C3=O)c1
  -0.2%, ., 28%, .
COCCN(C(=O)CNC(=O)c1cccs1)C(C(=O)NC1CCCCC1)c1ccco1 (stereo not given)
  -2.1%, -8, 15%, -5%
CC(C)[C@H](NC(=O)c1ccco1)C(=O)OCC(=O)Nc1cccc(F)c1
  -0.7%, -1, 0%, 3%
CCOc1ccc(CNCCCSc2ncccn2)cc1
  -0.8%, ., 1%, -4%
Cc1cc(NS(=O)(=O)c2ccc(NC(=O)CCCC(=O)O)cc2)nc(C)n1
  0.2%, -4, 15%, -1%
COc1ccc(C(NC(C)=O)c2ccc3cccnc3c2O)c(OC)c1 (stereo not given)
  2.7%, -4, 9%, 25%
NC(=O)c1ccsc1NC(=O)CN1C(=O)NC2(CCCC2)C1=O
  6.6%, ., -5%, .
COc1ccccc1CN(Cc1cc2c(C)ccc(C)c2[nH]c1=O)Cc1nnnn1Cc1ccco1
  -0.3%, -5, -5%, -8%
CCCC1(C(=O)O)NC(c2ccccc2O)C2C(=O)N(c3cccc(Cl)c3)C(=O)C21 (stereo not given)
  2.6%, 3, -21%, 2%
CC(C)CCNC(=O)CNC(=O)c1cccs1
  0.1%, 6, 0%, -12%
S=C(NCCc1ccccc1)N1CCN(Cc2ccc(Cl)c(Cl)c2)CC1
  3.0%, -2, 27%, 2%
O=C(OCc1nc2scc(-c3ccccc3)c2c(=O)[nH]1)c1cc(Cl)ccc1[N+](=O)[O-]
  -3.9%, -7, 14%, -8%
CCc1nnc(SCc2ccc([N+](=O)[O-])cc2)nc1CC
  -1.6%, ., 18%, .
COc1ccc(C(=O)C[n+]2ccc(-c3nnc4n3CCC4)cc2)cc1
  ?, 3, -18%, -3%
Cc1ccccc1C(C(=O)NC1CCCCC1)N(C(=O)CNC(=O)c1ccco1)c1cccnc1 (stereo not given)
  -1.7%, -2, -15%, 0%
COc1ccc(S(=O)(=O)N2CCCCCC2)cc1C(=O)Nc1cc(C)ccn1
  1.3%, ., -5%, .
COc1cccc(NC(=O)c2cccc(C(=O)Nc3cccc(OC)c3)n2)c1
  0.6%, ., 1%, 0%
COc1ccc(OC)c(S(=O)(=O)N2CCN(C34CC5CC(CC(C5)C3)C4)CC2)c1
  -4.6%, -22, 3%, 5%
COc1cccc(/C=N/Nc2ccccc2C(=O)O)c1O
  1.5%, ., 16%, -49%
O=C1CCC(Cc2ccccc2)N1 (stereo not given)
  -0.2%, 1, -10%, -2%
CC1CC(C)CN(C(=O)COC(=O)c2ccc(N3CCCC3=O)cc2)C1 (stereo not given)
  3.9%, ., 2%, .
CC1CCCCN1C(=O)c1ccc(C(=O)N2CCCCC2C)cc1 (stereo not given)
  -1.4%, 0, -2%, -7%

Some of the entries so far, field by field.
Cc1ccc2c(c1)N(CCCC(=O)NCC1COc3ccccc3O1)C(=O)CO2 (stereo not given)
  Rango complex inh: 1.3% | GLA inh pH 4.5: 4 | Rango dissoc inh: -19% | miR-21 FLuc: 1%
COc1cccc(C(=O)Nc2nc(-c3ccccc3)c(-c3ccccc3)o2)c1
  Rango complex inh: 0.8% | GLA inh pH 4.5: -5 | Rango dissoc inh: -10% | miR-21 FLuc: 15%
